Bioassay records from PubChem.
Menin-MLL FL inh – menin-MLL binding inhibition, fluorescein peptide. AID 1766. Fluorescence polarization, fluorescein-MLL peptide displacement from menin. FP activity change, % at 61.4 µM. 290,000 tested, under 10 active; inconclusive = falling polarisation curve, or a change in total fluorescence; inactive = total fluorescence flat and polarisation flat or rising; no compound was filed as active; the % refers to the polarisation; negative = inhibition;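 note: % of control where 0% means no effect; inhibitors lower the polarisation; unlabelled MLL peptide was the positive control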
Sfp PPTase inh – blocks B. subtilis Sfp PPTase activity; 310,000 tested, 3.5% active; Potency, µM, inactives show max response, negative = inhibition, usual class: inhibitors; Biochemical Sfp PPTase activity, qHTS; active = well fitted inhibition curve with a large enough effect; inconclusive = small, poorly fitted or top-dose-only effect, or another doubt; inactive = no such curve, though single readings can be large or run the other way;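 note: the enzyme is Sfp with the accession as filed and its product quenches rhodamine fluorescence; potency is the fitted concentration of half-maximal effect; 0% = enzyme reaction without inhibitor and -100% = no enzyme wells; top concentration of the series not given in the record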
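Sfp 15 nM + cpd, 15 min RT; start w/ rhodamine-CoA 5 uM, BHQ-2-YbbR 12.5 uM (final); 50 mM Hepes pH 7.6, 10 mM MgCl2, 0.01% NP-40, 0.01% BSA; read 525/598 nm at 0 and 30 min.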
An asterisk follows results filed as active; ? = inconclusive; & = joins results of further samples; ! = not active in a repeat; [ ] = dose if it differs, or a comment. This is a subset; the hit share may differ from the screen's.

SMILES	Menin-MLL FL inh	Sfp PPTase inh
CC(C)NC(=O)N1CCCC2(CCN(C(=O)c3ccco3)CC2)C1	0.6	19.4%
Cc1cnc(CNc2ncncc2-c2ccccc2C(F)(F)F)cn1	0.9	70.8µM*
COC(=O)c1ccccc1S(=O)(=O)N1CCc2nc(COc3ccccc3)c3c(c2C1)CO[C@@H](C)C3	3.7[11.7 µM]	-8.9%
C[C@@H]1C=CCC(=O)OC[C@H](C)C(=O)OC[C@H]2O[C@H]1C=C[C@@H]2O	1.8[11.7 µM]	19.6%
C=C1CCC2[C@](C)(CO)[C@H](O)CC[C@@]2(C)[C@@H]1C/C=C1/C(=O)OC[C@H]1O (stereo partly drawn)	3.8	-19.3%
CN(C)Cc1ccccc1-c1cncnc1Nc1ccc(F)cc1	0.4	-1.6%
Cc1ccc(C)c(-c2ccc(C(=O)O)o2)c1	-1.0[138 µM]	112µM*
CN1CCN(c2ncc3nc(-c4ccc(Cl)cc4)c(=O)n(C4CC4)c3n2)CC1	-0.7	-11.6%
CC(=O)OCC1C2CC[C@H]3C(OCc4ccc(F)cc4C(F)(F)F)OC[C@]4(C)[C@H]3C2=C(CN4C(=O)OC(C)(C)C)[C@H](C)C1COC(C)=O (stereo partly drawn)	0.4	38.1%[activator]
O=C1CSC2(CCN(CCCN3c4ccccc4Sc4ccc(Cl)cc43)CC2)N1	1.7	-13.9%
CC[C@@H]1OC(=O)[C@H](C)[C@H](O[C@@H]2C[C@](C)(OC)[C@H](O)[C@H](C)O2)[C@H](C)[C@H](O[C@@H]2O[C@@H](C)C[C@@H](N(C)C)[C@@H]2O)[C@](C)(O)C[C@H](C)[C@@H]2N[C@H](COCCOC)O[C@H]([C@@H]2C)[C@]1(C)O	-5.7[24.8 µM]	3.2%
CS(=O)(=O)Nc1cccc(-c2cncnc2Nc2ccc(F)cc2)c1	-2.5	-29.3%
COc1cccc(-c2cc(NCc3ccccc3OC)ncn2)c1	2.2	-3.6%
COc1ccccc1CN1CCCC2(CCN(C(=O)c3ccco3)CC2)C1	6.8	16.5%
COC(=O)N1CCC[C@@]2(CCN(C(=O)Nc3ccccc3)C2)C1	-7.9	3.0%
C#CCOC(=O)NC(/C=C/CCCC)c1ccccc1 (stereo not drawn)	-4.2	19.6%
COC(=O)C(C(=O)OC)[C@@H]1O[C@@]23COC=C[C@]2(C)[C@H]3c2ccccc21	5.3	-6.7%
N#Cc1cccc(NC(=O)N2CC[C@@]3(CCCN(S(=O)(=O)c4ccccc4)C3)C2)c1	5.0	3.2%
O=[N+]([O-])c1cccc2c(Br)[nH]nc12	?	4.7%&1.3%&-12.9%&-11.7%
CCNc1ncc2nc(CCc3ccccc3)c(=O)n(-c3ccc(OC)cc3)c2n1	11.6	-12.2%
CCCCCC(=O)/C=C/C=C\CCCCCCCC(=O)O	-3.0	6.9%&0.7%
Clc1ccc(Sc2cc(Cl)c(Cl)cc2Cl)cc1	?	-14.6%
C[C@@H](C(=O)Nc1ccc2ccccc2c1)[C@@H]1C[C@@]1(C)[C@@H](NS(=O)(=O)c1ccc(-c2ccccc2)cc1)c1ccccc1	-3.7	26.1%
COCCn1c(=O)c(-c2cc(F)cc(F)c2)nc2cncnc21	-2.0	16.3%
C[C@H](Cc1nc2c(cnn2-c2ccccc2Cl)c(=O)[nH]1)C(F)(F)F	4.3	-21.1%
Cc1noc(C)c1-c1nc(N(C)C)c2ccccc2n1	1.7	-23.3%
COC(=O)C1=C(C(=O)OC)[C@@H]2N(C)c3ccccc3[C@@]23C[C@@H](C(=O)OC)N(S(=O)(=O)c2cccs2)C3=N1	-1.0[11.7 µM]	-11.0%
CS(=O)(=O)c1ccc(C(O)C(CO)NC(=O)C(Cl)Cl)cc1 (stereo not drawn)	0.7	10.7%
COC(=O)CCCCCN1C(=O)NC(CC2CC2)C(C(=O)OCc2ccccc2)=C1C (stereo not drawn)	-1.1	9.9%
COC(=O)C1=C(C(=O)OC)[C@@H]2N(Cc3ccccc3)c3ccccc3[C@@]23C[C@@H](C(=O)OC)N(S(=O)(=O)c2ccc4c(c2)OCCN4C)C3=N1	-3.8[11.7 µM]	-8.7%
C[C@H](CCC(=O)O)[C@H]1CC[C@H]2[C@H]3C(C[C@H](O)[C@]12C)[C@@]1(C)CC[C@@H](O)C[C@H]1C[C@H]3O (stereo partly drawn)	-28.2	-2.4%&12.4%
COc1cccc(-c2nccc(NCc3cccnc3)n2)c1	-3.5	11.5%
CC1CCC(C(C)[C@H]2CCC3C4CC(=O)C5C[C@@H](O)CC[C@]5(C)C4CC[C@@]32C)=NC1 (stereo partly drawn)	-1.7	-17.0%
Cc1nc2cnc(Nc3ccccc3)nc2n(Cc2cccs2)c1=O	10.8	-3.7%
O=c1cnc2cnc(OCc3ccccc3)nc2n1CCc1ccccc1	11.0	-28.8%
COc1ccc2[nH]cc(CCNc3ncncc3-c3cccc(C#N)c3)c2c1	-3.6	-19.9%
O=C(O)CN(CC(=O)O)c1ccccc1OCCOc1ccccc1N(CC(=O)O)CC(=O)O	-8.0	17.2%
c1ccc(-c2cccc(N3CCCC4(CCNCC4)C3)c2)cc1	1.3	-22.9%
O=c1cnc2cnc(Oc3cccc(Cl)c3)nc2n1C[C@H]1CCCO1	9.2	-0.5%
COc1ccc(-c2nc(-c3ccccc3)c(NCc3ccccc3)o2)cc1	-0.8	-11.7%
COc1ccc(CNc2ccnc(-c3ccccc3C(F)(F)F)n2)c(OC)c1	-5.4	-12.1%
Clc1ccccc1-c1nc(N2CCNCC2)c2ccccc2n1	0.1	-2.2%
CC(=O)NCc1c(I)c(NC(C)=O)c(I)c(C(=O)O)c1I	2.4	10.0%
CC(C)(C)CC(C)(C)c1ccc(OCCO)cc1	7.5	-8.6%
CCCCCCCCCCCCCCC(C(=O)OC)C(O)(CC(=O)OC)C(=O)OC (stereo not drawn)	-2.8	5.5%
c1csc(CNc2ccnc(-c3ccc4c(c3)OCO4)n2)c1	-1.6	?
CCOC(=O)N/N=C1/C[C@@H](O)[C@@H](O)[C@@H]2[C@H]3C(=O)N(c4ccc(F)cc4F)C(=O)[C@@H]3CC[C@H]12	-4.2[11.7 µM]	6.4%
CC(=O)NCCNc1ncnc2ccc(-c3ccc4c(c3)OCO4)cc12	-1.2	-5.4%
C=C1CCC2C(CC2(C)C)C(=C)CC/C1=N/O (stereo not drawn)	0.2	-0.8%
OC1OC[C@H](O)[C@H](O)[C@H]1O (stereo partly drawn)	-0.4	15.4%
Further records follow.
SMILES	Menin-MLL FL inh	Sfp PPTase inh
FC(F)(F)c1ccccc1-c1cncnc1NCc1cccnc1	-2.3	2.0%
CCNc1ncc2nc(-c3cn(C)c4ccccc34)c(=O)n(-c3ccccc3)c2n1	?	15.5%
Nc1cc(Cl)c(NC2=NCCN2)c(Cl)c1	-7.1	15.8%
CCO[C@H]1O[C@@H]([C@H](COCc2ccccc2)OCc2ccccc2)[C@@H](OCc2ccccc2)[C@H]1O	4.5[24.8 µM]	34.6%[activator]
Cc1ccc(CNC(=O)[C@H]2C[C@@H]2[C@H](NP(=O)(c2ccccc2)c2ccccc2)c2ccccc2)c(F)c1F	3.0	15.8%
COc1cc(O)c2c(c1)C(=O)c1cc(C)cc(O)c1C2=O	-2.1	-26.6%
COc1ccc(CNc2ncncc2-c2ccccc2C)c(OC)c1	-0.4	-23.8%
OC[C@@H]1OC(O)[C@H](O)[C@H](O)[C@H]1O (stereo partly drawn)	-2.0	?
COc1cccc(-c2cc(N(C)Cc3ccco3)ncn2)c1	8.5	-29.2%
c1ccc(Nc2ncncc2-c2ccoc2)cc1	?	-24.4%
CC(C)CO/N=C1/C[C@@H](O)[C@@H](O)[C@@H]2[C@@H]3C(=O)N(C[C@@H]4CCCO4)C(=O)[C@H]3CC[C@@H]12	2.2[11.7 µM]	2.0%
O=c1cc(-c2cccc(F)c2)[nH]c2cc(Cl)ccc12	-2.0[94.6 µM]	7.3%
CC1=CCC(C(C)(C)O)CC1 (stereo not drawn)	-6.2	?
C[C@H]1CC[C@@H]2N(C1)C[C@H]1[C@@H]3C[C@H]4[C@@H](C/C(=N\O)[C@H]5C[C@@H](O)CC[C@@]54C)[C@@H]3CC[C@H]1[C@]2(C)O	-0.8	-0.9%
Cc1cc(=O)c2c(O)c3c(O)cc(O)c4c5c(O)cc(O)c6c(O)c7c(=O)cc(C)c8c1c2c(c34)c(c65)c78	?	50.1µM*
COc1ccc2[nH]cc(CCNc3cc(-c4ccccc4OC)ncn3)c2c1	-2.0	-25.1%
CCCN(C/C=C\I)[C@@H]1CCc2cccc(O)c2C1	?	-8.9%
O=c1c(-c2ccc(O)cc2)coc2c(C3OC(CO)C(O)C(O)C3O)c(O)ccc12 (stereo not drawn)	-0.7	-4.1%
CCCCN1CCCC[C@H]1C(=O)Nc1c(C)cccc1C	-2.8	19.2%&9.6%
N[C@@H](Cn1ccc(=O)n(Cc2ccccc2C(=O)O)c1=O)C(=O)O	6.8	56.2µM*
COC(=O)[C@@]1(Cc2ccccc2)[C@H]2c3cc(C(=O)N4CCCC4)n(Cc4ccc(C)o4)c3C[C@H]2CN1C(=O)c1ccccc1	0.5	56.2µM*
CCCCC[C@H](O)/C=C/[C@H]1C(=O)C=C[C@@H]1C/C=C\CCCC(=O)O	4.0	14.4%&12.2%
COC(=O)/C(=C/c1cn(C)c2ccccc12)[N+](=O)[O-]	?	56.2µM*
COC(=O)[C@@]1(Cc2ccc(OC)cc2)[C@H]2c3cc(C(=O)N4CCCC4)n(Cc4cc(F)c(F)c(F)c4)c3C[C@H]2CN1C(=O)c1ccccc1	8.9	13.6%
O=C(c1cc(C(F)(F)F)cc(C(F)(F)F)c1)N1CCC2(CC1)CN(Cc1ccncc1)C2	-1.7	-3.3%
O=C(Nc1cccc(F)c1)N1CC[C@@]2(CCCN(C(=O)c3cccc(F)c3)C2)C1	-0.3	10.3%
CC[C@H](C)[C@H](NC(=O)[C@H](Cc1ccc(O)cc1)NC(=O)[C@H](Cc1cnc[nH]1)NC(=O)[C@H](CCCNC(=N)N)NC(=O)[C@H](CC(C)C)NC(=O)[C@H](C)NC(=O)[C@H](CO)NC(=O)[C@H](Cc1ccc(O)cc1)NC(=O)[C@H](Cc1ccc(O)cc1)NC(=O)[C@H](CCCNC(=N)N)NC(=O)[C@H](C)NC(=O)[C@H](CC(C)C)NC(=O)[C@H](CC(=O)O)NC(=O)[C@H](CCC(=O)O)NC(=O)[C@H](C)NC(=O)[C@@H]1CCCN1C(=O)[C@H](C)NC(=O)[C@H](CC(=O)O)NC(=O)[C@H](CCC(=O)O)NC(=O)CNC(=O)[C@@H]1CCCN1C(=O)[C@H](CC(N)=O)NC(=O)[C@H](CC(=O)O)NC(=O)[C@@H]1CCCN1C(=O)[C@H](CCCCN)NC(=O)[C@@H](N)CO)C(=O)N[C@@H](CC(N)=O)C(=O)N[C@@H](CC(C)C)C(=O)N[C@H](C(=O)N[C@H](C(=O)N[C@@H](CCCNC(=N)N)C(=O)N[C@@H](CCC(N)=O)C(=O)N[C@@H](CCCNC(=N)N)C(=O)N[C@@H](Cc1ccc(O)cc1)C(N)=O)[C@@H](C)O)[C@@H](C)CC	3.0	-26.3%
COc1cc2nc(N3CCN(C(=O)[C@H]4CCCO4)CC3)nc(N)c2cc1OC	4.5	-0.9%
COc1ccc(/C=C/C(=O)CC(=O)/C=C/c2cccc(O)c2OC)cc1O	?	31.6µM*!
COCCn1c(=O)c(C)nc2cncnc21	-1.6	12.1%
O=C(c1cccc(F)c1)N1CCC2(CC1)CCN(c1ccccc1)CC2	-1.8	2.4%
CC(C)C1CCC(C(=O)NC(Cc2ccccc2)C(=O)O)CC1 (stereo not drawn)	-1.5	20.2%
CCN1CCCC1Cn1c(-c2ccccc2)nc2c(NC3CCCCC3)nc(C)nc21 (stereo not drawn)	-5.0	16.7%
CC1=C2[C@@H](O)[C@H]([C@@H](C)C(=O)NCCC(C)C)CC[C@@]2(C)C=CC1=O	-7.9	16.5%
CCOC(=O)O[C@@H](C)OC(=O)[C@@H]1N2C(=O)[C@@H](NC(=O)[C@@H](N)c3ccccc3)[C@H]2SC1(C)C	-4.4[24.8 µM]	11.5%
O=c1c(CCc2ccccc2)nc2cnc(N3CCOCC3)nc2n1CCc1ccccc1	0.6	7.6%
